Screening data from PubChem.
ALR H2O2 inh: inhibitors of human ALR sulfhydryl oxidase, primary screen, biochemical, H2O2 detection, HRP-luminol luminescence, single point | 3.8% of 290,000 active | AID 485317, 2010 | inhibition, % (test concentration not listed) | purified ALR, DTT oxidation;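 active = mean and each replicate at 75% or more; inconclusive = only one of the two met; inactive = neither met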;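 also: stock transfer was 7.5 nL into about 7.5 µL; 0% = neutral wells and 100% = wells with inactivated enzyme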
LANA-H2B inh: blockers of LANA interaction with H2A/H2B – biochemical, FP readout, HTS, primary screen. Protein LANA1 (Human herpesvirus 8 type P (isolate GK18)), Q9QR71. cell-free LANA-H2A/H2B peptide, fluorescence polarization. inhibition, % (no concentration beside the values). 0.6% of 320,000 active. AID 2629, 2010; in the data active = inhibition mostly above about 10%, no sharp cut-off; inactive = mostly below about 6.7%;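 also: stock transfer was 7.5 nL into about 10 µL; 0% = median of vehicle wells and 100% = median of positive control wells; one replicate is shown; the record names a cut of 25% in any replicate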
Target sequence (Q9QR71 whole entry, looked up): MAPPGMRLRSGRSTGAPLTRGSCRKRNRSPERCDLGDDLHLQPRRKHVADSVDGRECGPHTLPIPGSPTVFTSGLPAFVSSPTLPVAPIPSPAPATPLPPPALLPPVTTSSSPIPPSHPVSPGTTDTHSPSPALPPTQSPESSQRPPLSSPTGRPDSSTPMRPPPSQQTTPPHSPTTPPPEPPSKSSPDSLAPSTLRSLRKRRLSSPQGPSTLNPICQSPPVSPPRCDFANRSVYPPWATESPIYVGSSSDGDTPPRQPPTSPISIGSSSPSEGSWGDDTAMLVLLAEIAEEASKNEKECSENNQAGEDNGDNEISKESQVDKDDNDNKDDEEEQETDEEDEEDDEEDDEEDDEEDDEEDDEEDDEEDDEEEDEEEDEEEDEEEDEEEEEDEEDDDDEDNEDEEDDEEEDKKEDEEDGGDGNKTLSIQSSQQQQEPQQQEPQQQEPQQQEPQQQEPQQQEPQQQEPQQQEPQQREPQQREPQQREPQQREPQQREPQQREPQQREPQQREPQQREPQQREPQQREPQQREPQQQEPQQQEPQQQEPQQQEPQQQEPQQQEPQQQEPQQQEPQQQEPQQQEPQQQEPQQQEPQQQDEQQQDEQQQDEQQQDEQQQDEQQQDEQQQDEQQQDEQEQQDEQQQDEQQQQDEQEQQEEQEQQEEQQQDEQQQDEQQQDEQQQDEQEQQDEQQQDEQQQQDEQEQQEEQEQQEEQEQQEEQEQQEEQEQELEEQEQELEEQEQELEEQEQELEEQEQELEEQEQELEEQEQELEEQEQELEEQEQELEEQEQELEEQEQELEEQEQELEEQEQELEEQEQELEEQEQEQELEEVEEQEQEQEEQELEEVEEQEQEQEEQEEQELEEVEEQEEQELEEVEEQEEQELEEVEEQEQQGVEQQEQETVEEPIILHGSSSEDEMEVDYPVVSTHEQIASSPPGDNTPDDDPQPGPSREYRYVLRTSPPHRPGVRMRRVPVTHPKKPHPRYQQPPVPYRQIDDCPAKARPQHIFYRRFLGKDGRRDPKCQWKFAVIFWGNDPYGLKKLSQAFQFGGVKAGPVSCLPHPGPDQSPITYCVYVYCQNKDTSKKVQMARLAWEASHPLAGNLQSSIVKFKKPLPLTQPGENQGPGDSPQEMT
Calb FLC: C. albicans growth inhibition with fluconazole, primary screen, CaCi-2 strain, Alamar Blue fluorescence. C. albicans CaCi-2 (fluconazole-resistant clinical isolate) + fluconazole, 48 h. growth inhibition, % (concentration not given with the values). 0.57% of 300,000 active;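 active = most replicates above 75%; inconclusive = exactly half above 75%; inactive = most below 75%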;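 also: all wells also contain fluconazole at 8 µg/ml as a sub-toxic cotreatment; 0% = median of DMSO wells and 100% = median of geldanamycin control wells; wells of about 8 µL received 7.5 nL stock; the first replicate is given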
T cruzi inh: inhibitors of intracellular T. cruzi growth, primary screen, luminescence, NIH3T3 host cells | inhibition, % (test concentration not listed) | AID 1885, 2009 | 1.4% of 300,000 active | T. cruzi beta-gal in NIH3T3, 90 h;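 active = mean inhibition across valid replicates above about 55%, limit read from the data; inconclusive = mean below that limit but half or more replicates reach it; inactive = mean below it, under half of replicates reach it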;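 also: signal also drops with host cell toxicity which is not excluded here; 0% = plate median of DMSO wells and 100% = zero luminescence signal; higher percent means less beta-gal luminescence so fewer parasites; stock transfer was 50 nL into about 50 µL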
Beta cell apopt: inhibitors of cytokine-induced beta cell apoptosis, primary screen, luminescence; protection from apoptosis, % (no concentration beside the values); AID 435005, 2010; 0.8% of 300,000 active; INS-1E cytokine-induced death, ATP luminescence, 48 h; percent of positive-control rescue, neutral wells zero;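 active = all replicates at 75% or more, or half of them and the mean; inconclusive = half reach 75% but not the mean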;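 also: 0% = cytokine-treated negative control wells and 100% = positive control rescue; higher means more ATP so stronger rescue from cytokine killing; wells of about 40 µL received 100 nL stock; the first replicate is given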
B2AR ag: beta2AR agonists driving receptor internalization, primary screen, cell-based, FAP fluorogen, flow cytometry. Beta-2 adrenergic receptor (Homo sapiens), P07550. 0.43% of 340,000 active. Am2.2-beta2AR cells; reference of the scale not given here. response, % (no concentration beside the values);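 active = response above a set limit, near 3 SD of response in nonfluorescent compounds, cut at about 42% in these data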;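 also: stock transfer was 100 nL into about 11 µL; a reference agonist was the positive control; negative values mostly stem from fluorescent compounds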
Ecoli rRNA inh: reduced GFP signal of wild-type E. coli, primary screen, bacterial rRNA inhibitor project, GFP/RFP fluorescence, OD600, single point | E. coli WT GFP vs humanized-ribosome RFP mutants, 24 h; active compounds read low; DMSO median 0, no signal -100 | GFP signal change (wild-type ribosome), % (concentration not given with the values) | 1.6% of 350,000 active | AID 720706, 2013;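 active = significant combined selectivity score with lowered wild-type GFP, culture density cut under 30%, mutant RFP and density less affected; inactive = any of these conditions unmet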; also: one replicate is shown; some compounds called inactive have numbers as strong as hits
Bfl-1 A1 inh: caspase 3/7 activation in MEF A1-2A-BIM cells, primary screen, A1 inhibitor project, cell-based, luminescence, HTS; Caspase-Glo 3/7 luminescence, 3 h; percent of clofoctol response, vehicle zero; caspase activation, % (no concentration beside the values); 0.066% of 330,000 active; AID 2462, 2010;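 active = over half of replicate activation scores above 10%, or exactly half above 10 with the replicate mean above 10; inconclusive = replicate mean below 10 yet half the replicates above 10; inactive = over half of replicates below 10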;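 also: wells of about 30 µL received 50 nL stock; many hits fall short of the cut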
Ecoli rRNA inh OD600: second read-out of Ecoli rRNA inh, no call of its own (marks repeat the call); OD600 change, %; measured here: OD600 growth;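 optical density of the mix in the first replicate; 0 = DMSO median and -100 = no signal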
Ecoli rRNA inh RFP: further read-out of Ecoli rRNA inh, marked with its call; RFP signal change, %; measured here: RFP humanized mutant strains;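 first replicate; 0 = DMSO median and -100 = no signal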
Numbers without * were called inactive; i = inactive; ? = inconclusive; . = no result given.

SMILES	ALR H2O2 inh	LANA-H2B inh	Calb FLC	T cruzi inh	Beta cell apopt	B2AR ag	Ecoli rRNA inh	Ecoli rRNA inh OD600	Ecoli rRNA inh RFP	Bfl-1 A1 inh
Cc1cc2nc3c(nc2cc1C)C(O)=C3O	57	1.8	-7	-8	-6	6	0	6	-1.8	0.0
Cc1ccc(C2(CCNCc3ccco3)CCOC(C(C)C)C2)cc1 (centres undefined)	0	1.0	-1	29	-1	7	1	-7	3.1	0.7
COc1cc(/C=N/n2cnc3c(sc4nc(C)cc(C)c43)c2=O)ccc1O	-3	-7.4	10	7	4	.	.	.	.	-0.9
CC1CCCC(C)N1CCCNC(=O)c1nn(C)c2c1CSc1ccccc1-2 (centres undefined)	-4	7.0	-6	38	-3	-3	3	0	0.3	0.6
CC(C)C(=O)Nc1nnc(CCc2ccccc2)s1	0	0.9	-21	-7	-5	-3	10	12	0.0	-0.5
CC(C)(C)C(=O)CSc1nc2ccccc2o1	-1	-2.0	-5	0	-4	-5	-3	-17	-1.7	0.4
COc1cccc(C2(c3cccc(OC)c3)CC2C(=O)Nc2ccc(F)cc2)c1 (centres undefined)	-5	-1.5	1	?	1	0	-10	-10	5.0	0.3
CN(C(=O)COC(=O)c1ccc2ccccc2n1)c1ccccc1	-1	3.1	.	.	6	-4	.	.	.	0.9
COc1ccc(/C=C(\NC(=O)/C=C/c2ccco2)C(=O)NCCc2nc3ccccc3[nH]2)cc1	44	-4.0	-6	-8	-8	-6	.	.	.	0.3
CC1CCN(S(=O)(=O)c2cccc(C(=O)Nc3ccccc3)c2)CC1	14	-0.7	-12	-1	-4	-13	7	-5	-1.9	0.1
CC(C)c1cc(C(C)C)n2nc(N)nc2n1	-14	-3.2	.	-11	-8	8	4	8	-2.6	0.4
CC(=O)CCc1oc2ccc([N+](=O)[O-])cc2c1-c1ccc(C)o1	-11	-1.5	1	17	-4	7	11	9	1.7	0.1
O=C(c1cc(Cl)nc2ccccc12)N(Cc1nnc(-c2ccccc2Cl)o1)C1CC1	.	0.7	30	18	6	8	-31	-33	-1.7	1.3
CN1CCN(C2CC(=O)N(Cc3ccc(N4CCCC4=O)cc3)C2=O)CC1 (centres undefined)	14	-1.7	10	-4	-14	-1	.	.	.	0.2
Cc1ccc(O)c(C2=Nc3ccccc3N=C(c3ccco3)C2)c1	-2	-4.4	2	-7	2	-3	.	.	.	0.3
CN(C)c1nc(SCc2ccccc2Cl)nc2c1CCCC2	-8	5.9	-1	17	0	43*	.	.	.	2.0
C#CCn1cc(/C=N/NC(=O)c2cc3ccccc3o2)c2ccccc21	-4	0.4	.	1	-3	15	-5	-4	-0.3	0.1
CCCCC(=O)Nc1ccc2c(c1)nc1n2CCN(CCOC)C1	.	.	4	5	.	7	-3	5	-0.4	.
Cn1cc(Cl)c(C(=O)NNC(=S)Nc2cccc(Cl)c2)n1	89*	-0.5	46	7	-3	0	-60	-73	-21	-0.8
CCN1CCN(c2nc(N)c([N+](=O)[O-])c(Nc3cccc(C)c3)n2)CC1	-1	2.3	9	19	14	0	9	11	-2.0	-0.3
CCN(C(=O)CSc1ncn[nH]1)c1cccc2ccccc12	-15	3.6	5	-8	-4	-2	.	.	.	0.1
COc1cc([N+](=O)[O-])cc(/C=N/NC(=O)C(O)(c2ccccc2)c2ccccc2)c1O	-27	-4.1	-10	-8	.	14	-6	-1	6.8	-0.7
N#CC1=C(SCc2ccccc2)NC(=O)C(C#N)C12CCCC2 (centres undefined)	.	15*	-2	6	1	1	.	.	.	-0.4
COc1ccc2c(c1)[C@H]1[C@H](CO2)[C@H](c2ccccc2)[C@]2(C)C(=O)Nc3cc(Cl)ccc3C(=O)N12	.	4.0	.	.	10	2	.	.	.	-0.2
Cc1onc(-c2ccccc2Cl)c1C(=O)N1CCCCCC1	.	.	9	7	.	1	6	-2	-0.3	.
CN(C)c1ccc(N=Cc2nc(-c3ccccc3)oc2OC(=O)c2cccc(Cl)c2)cc1	45	-50	4	0	9	7	.	.	.	-1.0
Cc1ccc(O)c(NC(=O)c2ccccc2-c2ccccc2C(=O)O)c1	42	2.6	2	-7	-7	1	-3	-3	-11	0.1
O=C(CC(=O)Nc1ccc(F)cc1)Nc1ccc(F)cc1	3	-3.4	-3	-3	-4	-1	12	17	0.0	0.0
Cc1ccc2ncc(S(=O)(=O)c3ccccc3)c(N3CCCCC3C)c2c1 (centres undefined)	-3	0.0	-3	30	11	8	-6	-21	1.1	-0.1
COc1ccc(C(=O)N2CCN(c3ccc([N+](=O)[O-])c(NCCc4ccc(OC)c(OC)c4)c3)CC2)cc1	-16	-2.4	3	-8	106*	4	.	.	.	-0.3
O=C1CCC(C(=O)Nc2cccc(S(=O)(=O)N3CCOCC3)c2)N1 (centres undefined)	-3	-3.9	-26	-8	-6	-3	17	13	-4.5	-0.9
O=C(COC(=O)CCC1CCCC1)NCc1ccc(Cl)cc1	-6	-4.4	6	0	-4	5	2	-2	-2.2	?
Cc1ccc2cc(CN(C(=O)c3cccs3)c3ccccc3)c(=O)[nH]c2c1	.	-0.1	1	8	-9	-10	3	1	0.3	0.2
COc1ccc(CC(=O)N(C)CC(=O)Nc2ccccc2C(F)(F)F)cc1S(=O)(=O)N1CCOCC1	0	-6.8	1	-6	4	-12	.	.	.	1.0
O=C(c1nnc(-c2ccccc2)o1)C1CC1	-1	i	-14	-7	-3	-5	2	2	-2.3	-0.8
COc1ccc(OC)c(NC(=O)Nc2cnccn2)c1	-14	-0.4	31	0	-1	2	4	6	2.3	1.1
COc1ccc(Cl)cc1NC(=O)CSc1nncn1-c1cccnc1	.	6.2	5	-1	.	-12	.	.	.	1.0
COC(=O)c1cc(OC)c(OC)cc1NC(=O)CN1CCCCC1	-8	-3.9	-5	22	-4	17	-1	-8	-0.7	0.6
CC1CCCC(C)N1S(=O)(=O)c1ccc(Cl)cc1 (centres undefined)	-5	-9.6	-19	0	-6	2	4	-3	-0.2	-0.3
Cn1c(=O)c2c(ncn2CC(=O)N/N=C/C=C/c2ccccc2)n(C)c1=O	5	-1.3	1	-11	-7	-6	.	.	.	-1.0
Cn1nnc(NC(=O)CSc2ncn[nH]2)n1	2	-0.9	-4	-5	-3	6	.	.	.	-1.4
COc1ccc(OCc2cc(C(=O)N3CCCN(C(C)=O)CC3)no2)c(Cl)c1	-1	3.5	66	-5	-5	2	-3	3	-2.6	-0.6
CNC(=O)/C(C#N)=C/c1cn(CC(=O)OC)c2ccccc12	-1	-1.3	12	-16	-1	12	7	-7	5.1	-1.9
COc1ccc(S(=O)Cc2ccc(C(=O)N3CCN(c4cccc(C)c4C)CC3)o2)cc1 (centres undefined)	1	-1.7	10	-6	-1	-2	-9	-32	6.5	0.8
N#CCC(=O)NCCCc1ccccc1	7	-5.1	4	-11	-4	19	.	.	.	-0.5
Cc1ccc2nc(SCC(=O)NCC3CCCO3)c(C#N)cc2c1 (centres undefined)	.	-4.4	-2	5	-7	-4	.	.	.	0.4
CCOC(=O)C1CCN(C(=O)c2cc3c(=O)n4ccccc4nc3s2)CC1	1	4.8	4	-8	-4	4	1	-3	-1.9	-1.2
N#Cc1c(N)nc2c(c1-c1cccc(O)c1)CCCCCC2	-3	-0.5	15	-2	-3	9	.	.	.	-0.7
CCOC(=O)C1(CCc2ccccc2)CCN(C(=O)C2CCOCC2)CC1	5	-0.7	-15	-1	-5	14	-1	-3	3.7	0.3
CCOC(=O)Cn1ccc(O)c(Cc2ccc(Cl)cc2Cl)c1=O	-17	2.1	-1	-4	-11	-8	.	.	.	0.0
O=C(Cc1ccc(F)cc1)N(c1ccc(F)cc1)C1C=CS(=O)(=O)C1 (centres undefined)	-4	0.9	10	-8	-5	6	.	.	.	-0.1
Cc1ccc(C)c(C(=O)c2c(C)nc3sccn23)c1	2	-2.8	.	.	.	-16	.	.	.	-0.5
NC(=O)c1cc2ccccc2oc1=NCc1ccccc1	2	0.6	-4	5	-15	-20	.	.	.	-0.1
COc1ccc(S(=O)(=O)N[C@@H](C)C(=O)OCC(=O)Nc2cc3oc4ccccc4c3cc2OC)cc1	-11	-0.4	-7	10	-7	19	0	2	-5.7	-0.1
CCOC(=O)Nc1nnc(Cc2ccc(Cl)c(Cl)c2)s1	3	-3.3	-21	-29	.	8	3	9	-0.6	1.2
Cc1ccc2nsnc2c1S(=O)(=O)N(Cc1cc2cccc(C)c2[nH]c1=O)CC1CCCO1 (centres undefined)	-3	-0.5	12	16	1	17	.	.	.	0.7
Cc1nc2ccccc2n2c(-c3ccccc3)c3c(=O)n(C)c(=O)n(C)c3c12	17	0.5	13	13	3	-11	-34*	-19*	8.8*	0.7
O=[N+]([O-])c1cccc(-c2c[n+]3c(n2-c2ccccc2)SCC3)c1	.	-1.9	-22	.	13	-2	25	12	1.3	0.9
O=P(Cc1cccc[n+]1[O-])(c1ccccc1)c1ccccc1	-21	0.9	-2	-7	2	1	.	.	.	-0.5
CCC(C)n1[nH]c(=O)cc1N (centres undefined)	12	1.5	5	-15	.	-6	7	8	-0.1	-0.5

(listing goes on)
SMILES	ALR H2O2 inh	LANA-H2B inh	Calb FLC	T cruzi inh	Beta cell apopt	B2AR ag	Ecoli rRNA inh	Ecoli rRNA inh OD600	Ecoli rRNA inh RFP	Bfl-1 A1 inh
C/C(O)=c1/cnc2nc3ccccc3n2c1=O	5	-4.8	1	-11	-2	10	-4	-9	-0.4	-2.3
C[C@H](NC(=O)c1nc[nH]c1C(=O)NCCCCCNC(=O)OC(C)(C)C)C(=O)OC(C)(C)C	.	0.6	-4	10	-12	12	2	-2	0.9	-0.9
C/C(=N\NC(=O)c1cccc(F)c1)c1ccc(NC(=O)Cc2ccccc2)cc1	-2	2.5	-2	.	3	-8	10	12	-1.0	0.7
COc1cc(C2C(C#N)=C(N)Oc3c2ccc2ccccc32)ccc1OCC(=O)Nc1cccc(C)c1 (centres undefined)	-4	2.1	4	7	-6	-9	17	4	7.2	-0.4
COc1ccccc1NS(=O)(=O)c1ccc(C)c(NS(=O)(=O)c2cc(C(=O)O)cc(C)c2C)c1	5	-2.2	-8	3	-2	-6	.	.	.	-0.2
CN(C)S(=O)(=O)c1cc(C(=O)NCCCn2ccc3ccccc32)ccc1Cl	-1	1.4	-5	7	0	4	.	.	.	-0.7
Cc1ccc(NC(=O)CSc2nnc(C3CC3)n2N)cc1S(=O)(=O)N1CCOCC1	-11	0.5	-2	9	-1	4	9	9	3.0	-0.7

A portion of the library (hit frequency here may not be typical).
